HSD17B inhib: inhibitors of human HSD17B10 dehydrogenase. Potency, µM (titrated, usually from 57.1 µM), for the others: at the top dose activity change, negative = inhibition, most hits filed as inhibitors. recombinant HSD17B10, NADH fluorescence kinetic; many of its hits are not listed in these tables. actives 7.6% (n = 75,000). Q99714; active = well fitted inhibition curve with a large enough effect; inconclusive = small, poorly fitted or top-dose-only effect; inactive = no such curve, though single readings can be large or run the other way;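 also: the protocol describes HADH2 (HSD17B10) and not the HSD17B4 of the title; nearly all actives have a fitted effect of over 70% in size; most hits overshoot -100% by far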
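20 nM HADH2, pH 9.0 Tris/Tween; cpd preinc 15 min RT; start w/ 1 mM NAD+ + 90 uM b-hydroxybutyryl-CoA; kinetic fluor ex360/em450 q30s x 4 min; delta last-first.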
Starred values were filed as active, the others as inactive; u = inconclusive; [ ] = another dose, or the depositor's remark. % is scaled to controls: 0 for no effect and ±100 for the full control effect; potency is read from the fitted curve at half-maximal effect. An excerpt, so the mix of outcomes need not match the whole.

nr | molecule | HSD17B inhib
1 | CC(C)OC(=O)CSc1nnc(Cc2ccccc2)n1Cc1ccco1 | -3.1%
2 | CCOC(=O)c1ccc(NC(=O)N(CC)CC)cc1 | -2.8%
3 | Cc1ccc(S(=O)(=O)NC(CC(=O)N2CCOCC2)c2ccco2)cc1 (stereo not drawn) | -3.4%
4 | CCOC(=O)CN1Cc2cccc(C(=O)O)c2C1=O | 3.0%
5 | CCOc1ccc(N(Cc2cc3cc(OC)ccc3[nH]c2=O)S(C)(=O)=O)cc1 | -12.1%
6 | O=C1N=C(N2CCOCC2)SC1=C1CCCCC1 | 1.7%
7 | Cc1ccc(C2(C)NC(=O)N(Cc3c(C)noc3C)C2=O)cc1 (stereo not drawn) | 6.9%
8 | O=C(CCn1c(=O)sc2ccccc21)NCc1ccc2c(c1)OCO2 | 6.2%
9 | CCOC(=O)c1oc2ccc(Br)cc2c1NC(=O)CN1CCN(C)CC1 | 7.2%
10 | CCCCC(CC)C(=O)NCc1ccccc1OC (stereo not drawn) | 0.1%
11 | COc1c(Cl)ccc(Cl)c1C(=O)OCC(=O)O | 4.3%
12 | Cc1ccc(OCC(=O)N2CCN(C(=O)Cc3ccccc3)CC2)cc1 | 1.7%
13 | Cn1c(=O)c(-c2ccc(F)cc2)nc2cncnc21 | u
14 | CC1=CCC2C(=O)N(c3cccc(C(=O)N(C)C4CCCCC4)c3)C(=O)C2C1 (stereo not drawn) | 7.1%
15 | O=C(NCCCN1CCOCC1)c1ccc(CS(=O)(=O)Cc2ccc(Cl)cc2)o1 | 6.4%
16 | C/C(=C\c1cc(C(=O)O)c(C)o1)CO | -2.5%
17 | C=CC[C@@H]1C=C[C@H](O/N=C\[C@@H](C)[C@H](OCc2ccccc2)C(C)C)[C@H](CO)O1 | -1.4%[11.4 µM]
18 | CC(C)CC(OC(=O)c1cccs1)C(=O)NCC1CCCO1 (stereo not drawn) | -6.5%
19 | Cn1cc(Cl)c(C(=O)N2CCN(c3ncccn3)CC2)n1 | u
20 | COc1ccc(CC(=O)c2ccccc2C(=O)O)cc1 | 14.3%
21 | CCOC(=O)N1CCN(C(=O)COc2ccc(S(=O)(=O)NC(C)C)cc2)CC1 | -3.1%
22 | Cc1nc(C2CC(=O)OC23CCCCC3)cs1 (stereo not drawn) | -2.8%
23 | CC1CCC(C(C)C)C(OC(=O)COC(=O)c2cccn2C)C1 (stereo not drawn) | -9.9%
24 | COc1ccc(CCNC(=O)C2CC(=O)N(C3CCCC3)C2)cc1OC (stereo not drawn) | 1.7%
25 | CC(=O)Nc1ccc(-n2c(C)nc(=O)c(-c3ccccc3)c2C)cc1 | 0.6%

Compounds above that contain a Cl atom:
nr | molecule | HSD17B inhib
11 | COc1c(Cl)ccc(Cl)c1C(=O)OCC(=O)O | 4.3%
15 | O=C(NCCCN1CCOCC1)c1ccc(CS(=O)(=O)Cc2ccc(Cl)cc2)o1 | 6.4%
19 | Cn1cc(Cl)c(C(=O)N2CCN(c3ncccn3)CC2)n1 | u

(further entries)
nr | molecule | HSD17B inhib
26 | COc1ccccc1CN1CCCC2(CCN(C(=O)c3cccc(F)c3)CC2)C1 | 2.3%
27 | CC(C)(C)NC[C@@H](O)c1ccc(O)c(CO)n1 | 5.4%[11.4 µM]
28 | Cn1c(=O)cc(SCC(=O)N2CCCC2)c2cc(Cl)ccc21 | -14.4%
29 | Cc1ccccc1NC(=O)c1cc(N)ccc1N1CCCCC1 | 1.7%
30 | CC(C)C(NC(=O)OCc1ccccc1)C(=O)OCC(=O)N1C(C)CCCC1C (stereo not drawn) | -10.7%
31 | COc1cccc(-c2cc(=O)c3ccccc3o2)c1N | 17.7%
32 | CC1(C)C(=O)C2C[C@]3(O)C4=CC(=O)OC(c5ccoc5)[C@]4(C)CCC3[C@](C)(C2=O)C1CC(=O)O (stereo partly drawn) | 0.3%
33 | C=CCN1C(c2ccccc2)=CS/C1=C(\C#N)c1nnc2n1CCCCC2 | -0.4%
34 | S=c1nc(-c2nc(=S)[nH]c3c2CCCCCCCCCC3)c2c([nH]1)CCCCCCCCCC2 | 9.7%[11.4 µM]
35 | COc1ccccc1-c1coc2c(CN3CCN(CCO)CC3)c(O)ccc2c1=O | 25.1µM*
36 | Cn1c2c(c(=O)n(C)c1=O)C(c1ccc(Br)cc1)Nc1ccccc1O2 (stereo not drawn) | 2.6%
37 | Cn1c(=O)n(C)c2cc(C(=O)O)ccc21 | 3.0%
38 | O=C(CSc1nnc2scc(-c3ccccc3)n12)Nc1nsc(-c2ccc(Cl)cc2)n1 | -25.4%
39 | COc1cccc(N(C(=O)CNC(=O)c2ccco2)C(C(=O)NC2CCCCC2)c2ccncc2)c1 (stereo not drawn) | 14.5%
40 | COc1cc(NC(=O)c2cc(OC)c(OC)c(OC)c2)c(OC)cc1NC(=O)CN1CCCCC1 | 0.9%
41 | Cc1coc(C)c1C(=O)CC1(O)C(=O)Nc2cc(Cl)cc(Cl)c21 (stereo not drawn) | 10.4%
42 | Cc1noc(C)c1C(=O)N1CCN(CCc2ccccc2)CC1 | 6.5%
43 | O=C1CC(c2ccccc2)CC(O)=C1C=NCCN1CCN(C(=O)Nc2ccccc2)CC1 (stereo not drawn) | 1.3%
44 | CN(C)C(=O)Cn1cnc2c(cnn2-c2ccccc2Cl)c1=O | -0.3%
45 | O=C(Nc1ccccc1F)NC1CCN(Cc2nnnn2Cc2ccc(F)cc2)CC1 | -5.4%
46 | O=C(NCCc1ccccc1)C1CCN(C(=O)c2sccc2-n2cccc2)CC1 | 5.9%
47 | COc1ccc(OC)c(S(=O)(=O)N(C)CC(=O)Nc2ccc3c(c2)OCCO3)c1 | 10.3%
48 | CCOc1ccc2c(ccc(/C=C\c3cc(C)c4cccnc4c3O)[n+]2C)c1 | -1.0%[11.4 µM]
49 | COC(=O)[C@@]1(Cc2ccccc2)[C@H]2c3cc(C(=O)N4CCCC4)n(Cc4nc5ccccc5[nH]4)c3C[C@H]2CN1C(=O)c1ccccc1 | 13.4%
50 | COC(=O)c1cccc(NC(=O)c2cccc(OC)c2)c1 | -5.3%
51 | Cc1nn(Cc2c(Cl)cccc2Cl)c(C)c1NC(=O)c1cc(C(C)C)on1 | 8.3%
52 | O=C1C[C@@H](c2ccc(O)cc2)Oc2cc(O)cc(O)c21 | -0.8%[25.6 µM]
53 | O=C(NC1CCCCC1)c1nc2c(nnn2Cc2ccccc2Cl)c(=O)[nH]1 | 0.2%
54 | O=C(CSc1nc2c(cnn2-c2ccc(F)cc2)c(=O)[nH]1)N1CCOCC1 | -4.2%
55 | Cn1nc(CC(=O)Nc2ccc(N3CCN(C(=O)OC(C)(C)C)CC3)cc2)c2ccccc2c1=O | 4.8%
56 | COc1ccccc1CCNS(=O)(=O)c1c(C)n(C)c(=O)n(C)c1=O | 1.1%
57 | CCOC(=O)c1oc2cc(OCC(N)=O)ccc2c(=O)c1-c1ccc(OC)c(OC)c1 | 2.6%
58 | O=C(NCCc1ccc(Cl)cc1)C1CCN(S(=O)(=O)N2CCC3(CC2)OCCO3)CC1 | 13.9%
59 | CC(=O)Nc1nonc1NC(=O)CSc1nc2ccccc2o1 | -7.7%
60 | CSc1nc2ccccc2n1CC(=O)N1CCCCC1 | 5.4%
61 | Cc1cccc(NC(=O)CSc2nnc([C@@H]3CCCN3C(=O)OC(C)(C)C)o2)c1C | 4.6%
62 | CCOC(=O)N1CCN(C(=O)c2ccc(CN(c3ccc(C)c(C)c3)S(C)(=O)=O)cc2)CC1 | 1.3%
63 | C=Cn1c(C(=O)O)cc(CC)c1-c1ccccc1 | 0.6%
64 | Nc1c(S(N)(=O)=O)cc(S(N)(=O)=O)cc1S(N)(=O)=O | 7.9%[11.4 µM]
65 | Cc1sc2nc(SCC(=O)OC(C)C)n(C)c(=O)c2c1C | 4.2%
66 | O=C(OCCN1C(=O)c2ccccc2C1=O)c1cnccn1 | 2.4%
67 | COC(=O)C1=C(C)N(c2ccc(S(N)(=O)=O)cc2)C(=O)C1 | -2.4%
68 | CCC1CCCCN1S(=O)(=O)c1ccc(C(=O)Nc2nnc(-c3cccs3)o2)cc1 (stereo not drawn) | -12.0%
69 | CCOc1ccc(OCc2cccc(C(=O)N3CCOCC3)c2)cc1 | 4.5%
70 | CCCn1c(=O)c2ccccc2n2c(SCCOc3ccc(C)cc3)nnc12 | -1.3%
71 | O=C1c2cccc3cccc(c23)C(=O)N1c1nncs1 | 31.6µM*
72 | CCC(CC)n1[nH]c(=O)c2c(C)cc(C)nc21 | 3.6%
73 | CCOC(=O)c1[nH]c(C)c(C(=O)NCC2CCCO2)c1C (stereo not drawn) | -0.3%
74 | Cc1c(N=c2c(=O)c3ccccc3c2=O)c(=O)n(-c2ccccc2)n1C | -14.9%
75 | COc1ccc(-c2cc(C(=O)Nc3cc(C)n(Cc4ccc(Cl)cc4)n3)no2)cc1OC | 20µM*

New compounds follow:
nr | molecule | HSD17B inhib
76 | COc1ccc(C(=O)N2CCC(C(=O)Nc3ccccc3OC)CC2)cc1 | 10.0%
77 | O=C(Cn1nc(C(=O)O)c2ccccc2c1=O)NCCC1=CCCCC1 | 7.9%
78 | O=C(CCCCn1c(=O)[nH]c2ccccc2c1=O)NCCc1c[nH]c2ccccc12 | -3.8%
79 | CC(=O)OCc1cc2cccc(C)c2[nH]c1=O | u
80 | CN1CCc2c(sc3c2c(=O)n(-c2ccccc2)c2nnc(SCc4ccccc4F)n32)C1 | -15.8%
81 | N[C@@](CC(=O)O)(Cc1ccccc1)C(=O)O | 2.8%[11.4 µM]
82 | COc1ccc(CN2C(=O)CCC2(C)C(=O)NC2CCCC2)c(OC)c1 (stereo not drawn) | 5.4%
83 | Cn1c(/C(C#N)=C(\O)c2ccc(S(=O)(=O)N3CCCCC3)cc2)nc2ccccc21 | 8.2%
84 | O=C(O)CCC(=O)N1CCC(C(=O)c2cccc(Cl)c2)CC1 | -8.9%
85 | O=C1Nc2ccccc2C12Nc1ccccc1-c1nc3ccccc3n12 (stereo not drawn) | 39.8µM*
86 | O=c1cc(N2CCOCC2)[nH]c(=O)n1-c1ccc(Br)cc1 | 8.2%
87 | COC(=O)c1sc(NC(=O)CSc2nnnn2-c2ccc(C)cc2C)nc1C | 13.3%
88 | Nc1nc(-c2cc(-c3cccc4ccccc34)nc(N)n2)cc(-c2cccc3ccccc23)n1 | 1.3%[11.4 µM]
89 | CCSC1(SCC)N=C(N)C2(C#N)C(c3ccccc3)NC(C)=C(C)C12C#N (stereo not drawn) | 9.3%
90 | CCOc1ccc(CNc2ccc3c(c2)nc(C)n3C)cc1 | 31.6µM*
91 | CCSc1nc2ccccc2n1CC(=O)N1CCOCC1 | -7.4%
92 | Cn1c(=O)c2c(nc(N3CCCCCC3)n2CC(O)COc2ccc(Cl)cc2)n(C)c1=O (stereo not drawn) | -4.9%
93 | CC1(c2ccccc2)NC(=O)N(CCOc2ccccc2)C1=O (stereo not drawn) | 2.7%
94 | Cc1cccc(-c2nnc(SCc3cc(=O)[nH]c4ccccc34)n2C)c1 | 9.9%
95 | CCOC(=O)N1CCN(c2ccc(C(=O)c3ccccc3)cc2F)CC1 | u
96 | Cc1cc(COc2ccccc2OCc2cc(C)no2)on1 | 1.0%
97 | CCOC(=O)c1[nH]c(C)c(C(=O)NCCCOC(C)C)c1C | 6.3%
98 | O=C(c1noc2c1CCc1ccccc1-2)N1CCCc2ccccc21 | -3.1%
99 | COc1ccc(CNc2ncncc2-c2ccoc2)c(OC)c1 | -19.0%
100 | Cc1ccccc1-c1nc(CS(=O)CC(=O)NCc2ccccc2)c(C)o1 (stereo not drawn) | -6.2%

Brought forward from above: three entries; new compounds follow.
nr | molecule | HSD17B inhib
98 | O=C(c1noc2c1CCc1ccccc1-2)N1CCCc2ccccc21 | -3.1%
99 | COc1ccc(CNc2ncncc2-c2ccoc2)c(OC)c1 | -19.0%
100 | Cc1ccccc1-c1nc(CS(=O)CC(=O)NCc2ccccc2)c(C)o1 (stereo not drawn) | -6.2%
101 | Cn1nc(C(=O)NC2CCCCCC2)ccc1=O | 8.8%
102 | Cc1ccc2nc(NC(=O)C3CCN(S(=O)(=O)c4cccs4)CC3)sc2c1 | 1.6%
103 | Cc1nc2c(sc3nc4c(cc32)COC(C)(C)C4)c(=O)n1CC(=O)NCc1ccco1 | 7.5%
104 | COc1ccc(C(=O)N2CCN(C3CCCCC3)CC2)c(OC)c1 | 0.5%
105 | Cn1c(=NC(=O)CSCC(=O)N2CCCCC2)sc2ccccc21 | -7.2%
106 | CS(=O)(=O)N1CCN(c2ccccc2NC(=O)c2cccnc2)CC1 | 3.3%
107 | Cn1c(-c2ccc(CN3CCCCC3)o2)nc2ccccc21 | 25.1µM*
108 | Cc1c(C(=O)NCc2ccc3c(c2)OCO3)sc2nc(-c3ccc(F)cc3)cn12 | 3.9%
109 | O=C(Cn1nc(-c2ccccc2)ccc1=O)NCCN1CCN(Cc2ccccc2)CC1 | 4.7%
110 | COc1ccc2oc(=O)c(C(=O)O)cc2c1 | 4.1%
111 | Cc1oc(-c2ccc(Cl)cc2)cc1-c1nn2c(-c3ccoc3C)nnc2s1 | 12.6µM*
112 | CC(=O)N1CC=CC1(C)C(=O)NCc1cc(F)cc(C(F)(F)F)c1 (stereo not drawn) | 5.8%
113 | CCN(CC)C(C(=O)Nc1ccc2c(c1)OCO2)c1ccccc1 (stereo not drawn) | 13.9%
114 | CCCC(=O)NC1=C(C#N)C2(CCCC2)Cc2ccccc21 | -8.7%
115 | CCCn1cc(NC(=O)C2CC(c3cccc(Br)c3)=NO2)cn1 (stereo not drawn) | 3.8%
116 | O=C(CSc1nnnn1Cc1ccccc1)Nc1ccc2c(c1)OCO2 | -7.0%
117 | CN(C)/C=N/c1cnc(C(=O)c2ccc(Cl)cc2)n1C | 4.3%
118 | NC(=O)COc1ccc2c3c(c(=O)oc2c1)CCCCC3 | 25.1µM*

Compound activity deposited in PubChem BioAssay by National Center for Advancing Translational Sciences (NCATS).
